Mtb bLac sens – beta-lactam sensitization of Mtb H37Rv. M. tuberculosis H37Rv growth with meropenem, percent inhibition; hits of this screen are not shown here. actives 0.27% (n = 330,000). inhibition, % at 25 µM;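 active = about 74% or more and at least 40 points above the plate without the antibiotic, then above 30% in a dose series; inconclusive = first-round hits that could not be retested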;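 also: growth measured after seven days incubation then overnight dye step; 0% = bacteria only wells and 100% = bacteria with antibiotic; twin plates without the antibiotic show which effects depend on it; some results filed as inactive read as strong as hits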
RecA intein inh – blocks M. tuberculosis RecA intein splicing. AID 2221. actives 0.75% (n = 290,000). cell-free RecA intein splicing, fluorescence. P9WHJ3. inhibition, %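 (about 9 µM by stock and volumes)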; in the data active = inhibition above about 30%; inconclusive = no clear call, values can overlap the other calls;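 also: 0% = vehicle wells and 100% = reference inhibitor control wells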
Target sequence (P9WHJ3 whole entry, looked up): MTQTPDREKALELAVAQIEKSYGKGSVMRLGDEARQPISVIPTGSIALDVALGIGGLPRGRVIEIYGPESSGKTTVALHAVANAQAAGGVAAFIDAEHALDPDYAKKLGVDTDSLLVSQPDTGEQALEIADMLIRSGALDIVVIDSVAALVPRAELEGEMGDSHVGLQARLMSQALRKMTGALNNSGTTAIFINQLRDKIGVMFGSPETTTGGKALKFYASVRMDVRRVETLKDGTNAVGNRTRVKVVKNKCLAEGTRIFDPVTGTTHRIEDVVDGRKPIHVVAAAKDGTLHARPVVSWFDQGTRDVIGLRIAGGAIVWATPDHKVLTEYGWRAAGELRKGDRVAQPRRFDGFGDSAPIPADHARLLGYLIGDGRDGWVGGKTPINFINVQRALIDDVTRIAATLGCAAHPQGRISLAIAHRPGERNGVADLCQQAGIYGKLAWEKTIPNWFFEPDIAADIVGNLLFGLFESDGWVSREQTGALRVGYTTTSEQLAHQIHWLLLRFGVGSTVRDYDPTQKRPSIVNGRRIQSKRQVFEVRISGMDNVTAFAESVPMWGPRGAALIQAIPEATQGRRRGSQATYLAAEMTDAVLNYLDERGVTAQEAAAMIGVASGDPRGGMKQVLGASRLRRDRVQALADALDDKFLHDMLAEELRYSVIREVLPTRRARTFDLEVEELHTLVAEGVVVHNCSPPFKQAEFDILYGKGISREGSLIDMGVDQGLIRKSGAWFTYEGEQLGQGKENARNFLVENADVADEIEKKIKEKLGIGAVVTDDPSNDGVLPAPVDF
Mtb H37Rv – M. tuberculosis H37Rv growth inhibitors, H37Rv strain (AID 1626); one-dose inhibition, % at 10 µM; IC50 in µM for titrated hits; M. tuberculosis H37Rv growth inhibition; higher % means a stronger effect; actives 0.95% (n = 220,000);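 active = confirmed in a dose series; inconclusive = inhibition above 80% but not taken into the dose series; inactive = below 80% or under 30% at every dose of the series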;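 also: bacteria incubated seven days before Alamar blue readout; 0% = bacteria only wells and 100% = bacteria with antibiotic wells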
Arbovirus anti – blocks arbovirus infection. arbovirus infection cell-based antiviral screen. inhibition, % at 10 µM. actives 0.37% (n = 200,000). AID 1251;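 active = inhibition from about 30%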;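 also: bluetongue infection of BSR cells; cell survival read as ATP light after 72 h; 0% = infected wells without compound and 100% = uninfected wells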
YopH inh – blocks Yersinia enterocolitica YopH tyrosine phosphatase; actives 0.16% (n = 140,000); inhibition, %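 (about 10 µM by stock and volumes)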; fluorescence Ex485/Em525;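 active = inhibition of 50% or more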;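 also: controls were vehicle for no effect and minimum signal wells for full effect; inactives centre near -20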
Arbovirus anti repeat – also measured in Arbovirus anti; calls as there; inhibition, %; measured here: 10K subset replicate screen; many hits read low in the repeat;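 first of two repeat runs on a subset; 0% = infected and 100% = uninfected wells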
* hit, by the source's call; u = inconclusive; x = no result given; & = joins results of further samples. An excerpt. The share of hits here may be higher or lower than overall.

SMILES | Mtb bLac sens | RecA intein inh | Mtb H37Rv | Arbovirus anti | YopH inh | others
N#Cc1c2ccccc2nc2ccccc12 | 95 | -1.8 | u | x | x
O=C(Nc1c2c(nn1-c1ccc(F)cc1)CS(=O)C2)c1ccco1 (configuration not stated) | 2 | -0.2 | x | x | x
CN(C)S(=O)(=O)c1ccc(C(=O)Oc2cc(=O)[nH]c3ccccc23)cc1 | 1 | 0.4 | -14% | -2 | -44
Cc1nc(-c2ccccc2)cn2c1nc1ccccc12 | 94 | -40 | 4% | 4 | 10
CCN(CC)C(NC(=O)c1ccccc1)C(=O)c1ccccc1 (configuration not stated) | -5 | 1.4 | 6% | 1 | -34
CNC(=S)N1C2CCCC1CC(NC(=O)c1ccc(F)cc1)C2 (configuration not stated) | -12 | -1.9 | x | x | x
COc1ccc(/C=N/Nc2cc(OC)ncn2)cc1 | 2 | -4.9 | 2% | 0 | -18
Cc1cc(C)n2cc(CSc3nncn3C)nc2n1 | -4 | -0.4 | 0% | -2 | x
O=C1/C(=N\S(=O)(=O)c2cccs2)C([n+]2ccc(CCCc3ccccc3)cc2)=C([O-])c2ccccc21 | 78 | 7.8 | 76% | x | x
COc1ccc(CCN2CC(C(=O)N(C)Cc3ccc4nsnc4c3)CCC2=O)cc1 (configuration not stated) | -1 | -1.3 | x | x | x
COc1ccccc1N1CCN(C2CCCN(C(=O)c3ccnc4ccc(C)cc34)C2)CC1 (configuration not stated) | -1 | -2.2 | x | x | x
COc1ccc(-c2cc(C(=O)Nc3c(C)nn(Cc4ccccc4Cl)c3C)no2)cc1 | -4 | 6.3 | 3% | 4 | -25
COc1cc(CN2CCN(C(=O)Cc3ccccc3)CC2)cc(OC)c1OC | -1 | -6.1 | x | x | x
CCc1c(O)nc(SCc2ccccc2)n(C(C)CC)c1=O (configuration not stated) | -9 | 6.4 | -7% | 8 | -40
O=S(=O)(N/N=C/c1ccc(N2CCOCC2)cc1)c1ccccc1 | -3 | -1.4 | 1% | -7 | x

Part of the list above in order of SMILES length, falling:
SMILES | Mtb bLac sens | RecA intein inh | Mtb H37Rv | Arbovirus anti | YopH inh | others
COc1ccc(CCN2CC(C(=O)N(C)Cc3ccc4nsnc4c3)CCC2=O)cc1 (configuration not stated) | -1 | -1.3 | x | x | x
O=C(Nc1c2c(nn1-c1ccc(F)cc1)CS(=O)C2)c1ccco1 (configuration not stated) | 2 | -0.2 | x | x | x
Cc1nc(-c2ccccc2)cn2c1nc1ccccc12 | 94 | -40 | 4% | 4 | 10

Continuation:
SMILES | Mtb bLac sens | RecA intein inh | Mtb H37Rv | Arbovirus anti | YopH inh | others
COC(CNC(=O)CNC(=S)N(CCCN1CCOCC1)Cc1cccs1)OC | 0 | -1.2 | 1% | 3 | x
O=C(COc1ccccc1-c1ccccc1)N/N=C/c1ccccn1 | 3 | -1.2 | -2% | -15 | x
COc1ccccc1C(=O)NC(=S)N1CCCc2ccccc21 | 8 | -2.6 | 3% | 3 | -26
CC(=O)Cc1nsc(NC(=O)C2Cc3ccccc3C(=O)O2)n1 (configuration not stated) | 1 | 0.1 | -11% | 6 | 1 | Arbovirus anti repeat=2
CCCc1ccc(OCC(O)CN2CCN(c3ccccn3)CC2)cc1 (configuration not stated) | 13 | -1.1 | x | x | x
Cc1ccc(NC(=O)CCN2CC(C)OC(C)C2)cc1 (configuration not stated) | 40 | -0.6 | x | x | x
CCOc1ccc(N(CC(=O)NC2CCCCC2)C(=O)CNC(=O)c2cccs2)cc1 | -2 | 0.0 | x | x | x
Cc1ccc(C2(c3noc(CN(C)Cc4cccnc4)n3)CCCC2)cc1 | 3 | 2.2 | 12% | 0 | x
COC(=O)COc1cccc2c(=O)n(CC(=O)N3CCCc4ccccc43)ccc12 | 1 | 4.5 | -3% | 3 | -27
Clc1ccc(-c2nnc(CSc3nnc(-c4cccs4)n3Cc3ccccc3)o2)cc1 | 5 | x | 8% | 3 | -27
COc1ccc(NC(=O)c2oc3ccccc3c2NC(=O)C2CC2)cc1OC | u | -0.2 | x | x | x
COc1ccc(NC(=O)c2nc[nH]c2C(=O)N[C@H](C)c2ccccc2)cc1 | 100 | 7.3 | u | x | x
O=C(O)C1C2C=CC(C2)C1C(=O)NCc1ccoc1 (configuration not stated) | u | -9.2 | x | 9 | -43
Cc1ccc(C)c(OCCC(=O)OCC(=O)Nc2ccc(C)c(S(=O)(=O)N3CCCCC3)c2)c1 | -5 | 4.8 | x | x | x
CC(C)(C)c1ccc(C(=O)NNC(=S)NCC2CCCO2)cc1 (configuration not stated) | 2 | -0.9 | 7% | 12 | -24
COc1ccc(N2CCN(C(=O)C3CC(O)CN3S(=O)(=O)c3ccc([N+](=O)[O-])cc3)CC2)cc1 (configuration not stated) | 4 | -2.3 | 2% | 7 | -30
Cc1ccc(-n2c(Cc3cccn3C)nnc2SCC(=O)NC2CCCCC2)cc1 | x | 3.6 | 10% | -9 | -39
COc1ccc(/C(O)=C2/C(=O)C(=O)N(c3ncccn3)C2c2ccc(C(C)(C)C)cc2)cc1 (configuration not stated) | -1 | -0.6 | -8% | 17 | x
COC(=O)CC1(CC(=O)OC)C(=O)NC(=O)NC1=O | -14 | -1.0 | -7% | -5 | -40
CCOC(=O)N1CCN(C(=O)C2CCN(S(=O)(=O)c3ccc(OCC)cc3)CC2)CC1 | -7 | -4.5 | x | x | x
COc1ccc(-n2c(=O)c3ccccc3n(Cc3ccc(F)cc3)c2=O)cc1OC | 0 | x | -11% | -2 | 10
Cc1ccc(-n2nc3c(=O)n(CC(=O)c4ccc(F)cc4)nc(C)c3c2C)cc1 | -6 | 2.9 | -7% | -6 | -23
Oc1c(C=C2N=c3ccccc3=N2)sc(=S)n1-c1ccc(F)cc1 | -1&-2 | -0.3&-2.8 | -7% | 14&6 | -15&-25
O=C1CC(c2ccc(F)cc2)SC(N(c2ccccc2)c2ccccc2)=N1 (configuration not stated) | 6 | 3.8 | 1% | -4 | -9
O=c1cc(CO)occ1OCc1ccccc1 | -5 | 0.7 | -1% | 4 | -12
CC(C)Oc1ccc(CCC(=O)NNC(=S)NCc2ccccc2)cc1 | -8 | 0.2 | 4% | x | x
O=C(C1CC(=O)N(C2CCCC2)C1)N1CCC(Cc2ccccc2)CC1 (configuration not stated) | 3 | 4.6 | 7% | 1 | -38
COC(=O)/C=C\C(=O)Nc1cccc([N+](=O)[O-])c1 | 0 | -1.4 | -3% | 0 | -16
COc1ccc(C2Nc3ccccc3NC3=C2C(=O)CC(C)(C)C3)c(OC)c1OC (configuration not stated) | 9 | -0.2 | x | x | x
Cn1c(=O)c(-c2ccccc2)nc2ccccc21 | -13 | 0.0 | 5% | 7 | 34
Cn1c(/C(C#N)=C(\O)c2ccc(Cl)s2)nc2ccccc21 | 43 | -24 | x | x | x
S=C(NCCc1ccccc1)N1CCOCC1 | -6 | 0.4 | x | x | x
Clc1ccc(-c2cn3c(n2)SCC3)cc1 | 4 | -1.5 | -8% | -3 | x
COc1cc2c(cc1OC)CN(C(=O)COc1ccccc1C#N)CC2 | -3 | 1.3 | x | x | x
C=CCNC(=O)C1CC=CCC1C(=O)O (configuration not stated) | -15 | 1.3 | -4% | 0 | -15
CON(C)S(=O)(=O)c1cccc(C(=O)Oc2ccc(N(C)S(=O)(=O)c3ccccc3)cc2)c1 | 2 | 5.4 | x | x | x
COc1ccc(Cn2nnc3c(=O)[nH]c(C(=O)NCCc4ccc(F)cc4)nc32)cc1OC | -3 | -0.2 | -18% | 7 | -30 | Arbovirus anti repeat=3
O=C(O)c1ccccc1C(=O)N1CCN(c2ncccn2)CC1 | 1 | -0.2 | x | x | x
O=c1c(-c2ccc(O)cc2)coc2cc(O)ccc12 | 1 | 1.4 | -8% | x | x
Cc1ccc(-n2c(SCC(=O)Nc3cc(C)on3)nc3ccccc3c2=O)cc1 | 6 | -0.7 | 0% | 1 | -5
Cc1ccccc1-c1nc(SCc2cccnc2)c2c(=O)n(C)c(=O)n(C)c2n1 | -2 | 16 | 11% | 6 | x
CC(C)(C)C(=O)NN=C1CCC(c2ccccc2)CC1 (configuration not stated) | -3 | 3.0 | x | x | x
CCOP(=O)(OCC)C(CC)N1CCOCC1 (configuration not stated) | 4 | 4.0 | 2% | 1 | 0
Cc1n[nH]c(C)c1CCN | -6 | 0.5 | -7% | 5 | -42
CN(C(=O)COC(=O)CN1C(=O)C2CC=CCC2C1=O)c1ccccc1 (configuration not stated) | -3 | -0.2 | x | x | x
COc1ccc(CCN2C(=O)c3cccc4cccc(c34)C2=O)cc1OC | -4 | -0.1 | x | -8 | -34
COC(=O)c1ccc(C2C(C(=O)c3ccc(C)o3)=C(O)C(=O)N2c2cc(C)on2)cc1 (configuration not stated) | 4 | -2.7 | x | x | x
CC(C)C(=O)N1CCN(c2ccc(NC(=O)c3ccc([N+](=O)[O-])o3)cc2)CC1 | 100 | -11 | u | -36 | x
COc1c2occc2c(OC)c2c(=O)cc(C(F)(F)F)oc12 | -14 | -1.0 | 2% | -1 | 3
O=C1CSC(c2ccc(F)cc2)N1c1nnc(C23CC4CC(CC(C4)C2)C3)s1 (configuration not stated) | x | x | 0% | -5 | -5
COc1cc(NC(=O)c2ccc(Br)o2)ccc1NC(=O)C(C)C | 37 | 2.8 | 0% | 1 | 5
CCOC(=O)/C(C#N)=C/c1cn(CCOc2ccccc2)c2ccccc12 | -1 | -1.0 | 5% | 0 | -25
CCN(CCn1cccn1)C(=O)CC1C(=O)NCCN1Cc1cccc(OC)c1OC (configuration not stated) | -2 | -1.3 | -1% | 2 | x
Cc1ccccc1NC(=O)NC1(C(=O)NCCCN2CCOCC2)CCCCC1 | 1 | -0.1 | -1% | 3 | -16
O=C(C1CCCN(S(=O)(=O)c2ccccc2)C1)N1CCN(c2ccccc2)CC1 (configuration not stated) | -5 | -1.4 | x | x | x
COc1ccc(-n2c(SCC(=O)Nc3ccc([N+](=O)[O-])cc3OC)nc3ccccc32)cc1 | 4 | 2.4 | 4% | -6 | -5
O=C(NC1CCCCCC1)c1cc(=O)[nH]c2ccc(S(=O)(=O)N3CCOCC3)cc12 | -3 | -2.0 | -1% | 4 | x

2 compounds picked at random from the list so far, as already listed:
SMILES | Mtb bLac sens | RecA intein inh | Mtb H37Rv | Arbovirus anti | YopH inh | others
CC(C)C(=O)N1CCN(c2ccc(NC(=O)c3ccc([N+](=O)[O-])o3)cc2)CC1 | 100 | -11 | u | -36 | x
Clc1ccc(-c2nnc(CSc3nnc(-c4cccs4)n3Cc3ccccc3)o2)cc1 | 5 | x | 8% | 3 | -27

Among those listed so far, four have a cyano group.
SMILES | Mtb bLac sens | RecA intein inh | Mtb H37Rv | Arbovirus anti | YopH inh | others
N#Cc1c2ccccc2nc2ccccc12 | 95 | -1.8 | u | x | x
Cn1c(/C(C#N)=C(\O)c2ccc(Cl)s2)nc2ccccc21 | 43 | -24 | x | x | x
COc1cc2c(cc1OC)CN(C(=O)COc1ccccc1C#N)CC2 | -3 | 1.3 | x | x | x
CCOC(=O)/C(C#N)=C/c1cn(CCOc2ccccc2)c2ccccc12 | -1 | -1.0 | 5% | 0 | -25
